# Source: PubChem
# N370S GC mod = qHTS Assay for Inhibitors and Activators of N370S glucocerebrosidase as a Potential Chaperone Treatment of Gaucher Disease; Lysosomal acid glucosylceramidase (Homo sapiens), P04062; N370S GC spleen homogenate, 4MU-glucoside fluorescence; Potency, µM (series often up to 59.4 µM), for inactives: at the highest dose activity change, negative = inhibition, usual class: inhibitors; 330,000 compounds, 0.092% hits; AID 2101, 2009;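 also: 0% = full enzyme activity and -100% = no enzyme basal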
# FEN1 inhibitor = qHTS Assay for the Inhibitors of Human Flap endonuclease 1 (FEN1); Potency, µM (highest dose often 114 µM), for the others: at the highest dose activity change, negative = inhibition, hits mostly inhibitors; 390,000 compounds, 0.35% hits; Recombinant FEN1 flap cleavage, fluorescence, 15 min; P39748; AID 588795, 2011; also: nearly all actives have a fitted effect of over 65% in size
# Target sequence (P39748 whole entry, looked up): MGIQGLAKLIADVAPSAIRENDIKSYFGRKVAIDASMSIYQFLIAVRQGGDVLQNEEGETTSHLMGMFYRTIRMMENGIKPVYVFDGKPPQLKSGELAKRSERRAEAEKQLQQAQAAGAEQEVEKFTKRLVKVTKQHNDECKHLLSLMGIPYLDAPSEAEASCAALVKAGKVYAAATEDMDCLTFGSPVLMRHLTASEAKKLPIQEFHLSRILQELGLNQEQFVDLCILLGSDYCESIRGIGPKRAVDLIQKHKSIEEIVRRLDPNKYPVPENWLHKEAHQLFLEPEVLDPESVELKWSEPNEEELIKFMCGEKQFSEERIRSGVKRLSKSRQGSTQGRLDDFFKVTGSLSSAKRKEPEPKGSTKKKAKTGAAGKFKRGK
#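 Compounds are tested as a concentration series against 10 nM FEN1; after a 15 min room-temperature preincubation, 50 nM substrate starts cleavage, with plate reads at 0 and 15 min. Normalized responses are fitted by a Hill equation.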
# An asterisk follows results filed as active; u = inconclusive; x = no result given; & = joins results of further samples; [ ] = dose if it differs, or a comment. Calls follow the shape of the dose curve; as a rule, active = well fitted curve in the direction sought with a large enough effect; inconclusive = small, poorly fitted or top-dose-only effect, or another doubt; inactive = no such curve, though single readings can be large; an effect the other way counts as inactive or inconclusive. Unless noted, % is scaled to controls: 0 for no effect and ±100 for the full control effect; potency is read from the fitted curve at half-maximal effect.
cpd	compound	N370S GC mod	FEN1 inhibitor
1	CN(C)c1ccc(C(=S)N2CCCCC2)cc1	4%	-8%
2	CCn1c(SCC(=O)N2CCCc3ccccc32)nc2c1c(=O)n(C)c(=O)n2C	-1%	u
3	Nc1cc(Cl)ccc1C(=O)OCC(=O)N1CCOCC1	2%	-3%
4	Fc1ccc(NC(=S)Nc2nccs2)cc1	-2%	-18%
5	CC1(C)C(=O)NCCN1C(=O)CCCC(=O)O	4%	-1%
6	CCc1nnc(NC(=O)CSc2ncnc3c2cnn3-c2ccc(OC)cc2)s1	-2%	11%
7	Cc1ccc(S(=O)(=O)NCC2CCC(C(=O)NCc3ccc(F)cc3)CC2)cc1 (stereo not given)	x	1%
8	Cn1c(=O)c2c(nc(N/N=C/c3ccc(OC(=O)c4ccco4)cc3)n2Cc2ccc(F)cc2)n(C)c1=O	5%	3%
9	O=C(COc1ccc2ccccc2c1)Nc1cccnc1Cl	-5%	-2%
10	Cc1cnc(C(=O)OCc2ccc(COC(=O)c3cnc(C)cn3)cc2)cn1	2%	-15%
11	O=c1c2cc3c(cc2[nH]c(=S)n1Cc1ccco1)OCO3	-2%	-7%
12	COc1ccc(OC)c(-n2c(-c3cc(-c4ccccc4)n[nH]3)n[nH]c2=S)c1	u	-3%
13	Cc1nn(CC(=O)NCCC2=CCCCC2)c(C)c1[N+](=O)[O-]	-11%	14%
14	Fc1ccccc1-c1nc(NCc2ccccc2)c2ccccc2n1	13µM*	-5%
15	O=C(CCc1nc2ccccc2c(=O)[nH]1)OCc1cccc(C(F)(F)F)c1	3%	-6%
16	Cn1c(SCc2c(Cl)cccc2Cl)nnc1-c1cccs1	-6%[2.35 µM]	2%
17	CCN(C(=S)NC(=O)C1CC1)c1ccccc1	5%	-12%
18	CC1=CC(=O)C2=C(C)CC[C@@H]3[C@H](OC(=O)[C@H]3C)[C@@H]12	11%	16%
19	CCCS(=O)(=O)N1CCC(N2CCN(Cc3ccc(C)cc3)C(=O)C2=O)CC1	x	7%
20	CCn1c(Cc2ccccc2)nnc1SCC(=O)c1c(N)n(C2CC2)c(=O)[nH]c1=O	x	-16%
21	N#C/C(=C\c1ccc(O)c([N+](=O)[O-])c1)C(=O)NCc1ccccc1	-10%	4%
22	Cn1c(O)c(C=Nc2ccc(Cc3ccncc3)cc2)c(=O)n(C)c1=O	2%	x
23	O=C(O)c1ccc(N2C(=O)CC(SC(=Nc3ccccc3)Nc3ccccc3)C2=O)cc1 (stereo not given)	-7%	-3%
24	O=C(Nc1cc(S(=O)(=O)N2CCOCC2)ccc1N1CCCC1)c1ccc(Cl)cc1	-16%	-3%
25	COc1ccccc1CCNC(=O)CCn1nc(C)c2c(C)n(-c3ccccc3)nc2c1=O	2%	17%
26	O=C(NCCCn1ccnc1)c1cc2ccccc2o1	-12%	-4%
27	Cc1ccc(NC(=O)c2ccc3nccnc3c2)c(C)c1	0%	17%
28	Cc1ccc(S(=O)(=O)N2CCC(C(=O)NCc3cccnc3)CC2)cc1	3%	4%
29	CCc1noc(C)c1C(=O)NC1CCCc2c1cnn2-c1ccc(C(C)(C)C)cc1 (stereo not given)	0%	1%
30	CCOC(=O)CC(=O)CSc1nc(C)cc(C)c1C#N	1%	8%

# Ordered by SMILES length (smallest number first): part of the list above
cpd	compound	N370S GC mod	FEN1 inhibitor
5	CC1(C)C(=O)NCCN1C(=O)CCCC(=O)O	4%	-1%
14	Fc1ccccc1-c1nc(NCc2ccccc2)c2ccccc2n1	13µM*	-5%
13	Cc1nn(CC(=O)NCCC2=CCCCC2)c(C)c1[N+](=O)[O-]	-11%	14%
21	N#C/C(=C\c1ccc(O)c([N+](=O)[O-])c1)C(=O)NCc1ccccc1	-10%	4%
25	COc1ccccc1CCNC(=O)CCn1nc(C)c2c(C)n(-c3ccccc3)nc2c1=O	2%	17%
20	CCn1c(Cc2ccccc2)nnc1SCC(=O)c1c(N)n(C2CC2)c(=O)[nH]c1=O	x	-16%

# Continued:
cpd	compound	N370S GC mod	FEN1 inhibitor
31	Cc1cccc(C(=O)OCc2cncs2)c1	12%	-19%
32	COc1ccc(CC(=O)OCC(=O)c2ccc[nH]2)cc1	x	-2%
33	CCCCCCCCSc1nnc(-c2ccc(OC)cc2)o1	x	-8%
34	COc1ccc(OCCOC(=O)c2nc3nccc(C)n3n2)cc1	-18%	1%
35	NC1=NC2C(N=C(Br)N2[C@@H]2O[C@H]3COP(=O)(O)O[C@@H]3[C@@H]2O)C(=O)N1 (stereo not given in full)	-2%&8%	x
36	CCc1cc2cc3c(cc2nc1SCC(=O)OC(C)C)OCO3	2%	-14%
37	CCOC(=O)C(NCc1ccc2c(c1)OCO2)(NC(=O)CC)C(F)(F)F (stereo not given)	5%	-6%
38	COc1ccc(NC2CC(=O)N(c3cc([N+](=O)[O-])ccc3C)C2=O)cc1 (stereo not given)	-5%	-4%
39	CCCOc1ccc(OCCCCNC(C)CC)cc1 (stereo not given)	4%	-15%
40	Cc1nnc(SCC(=O)NCCC2=CCCCC2)[nH]c1=O	x	-18%
41	COc1ccc(OCC(=O)Nc2ccc3c(c2)N(C)C(=O)c2ccccc2S3)cc1	x	-13%
42	O=C(Nc1cc(C(F)(F)F)ccc1Cl)C(NCc1ccccc1)c1ccccc1 (stereo not given)	6%	-8%
43	O=C(C[C@H]1C[C@H](C(=O)N2CCCCC2)[C@@]2(CCc3ccccc3)c3[nH]c4cc(-c5ccco5)ccc4c3CCN2C1=O)NCCN1CCOCC1	x	4%
44	O=C1c2ccccc2C(=O)N1CCCn1nnc(-c2ccc(N3CCOCC3)cc2)n1	1%	-7%
45	Cc1nn(C(C)C)c(C)c1CN1CCCC(C(=O)c2cccc(OC(C)C)c2)C1 (stereo not given)	-19%	0%
46	O=C(CSc1nc(=O)n(Cc2ccccn2)c2c1CCC2)Nc1ccc(F)cc1F	3%	-4%
47	COc1ccccc1C(=O)NC(CCSC)C(=O)NCC(c1cccs1)N(C)C (stereo not given)	-1%	0%
48	O=C1C=CC(=O)N1CCNc1ncc(C(F)(F)F)cc1Cl	-6%	u
49	CC(C)C[C@H]1C(=O)N2CCC[C@@H]2[C@]2(O)O[C@](NC(=O)[C@H]3C=C4c5cccc6[nH]c(Br)c(c56)C[C@H]4N(C)C3)(C(C)C)C(=O)N12	15%[21.6 µM]	x
50	Cc1ccc(CNC(=O)CNS(=O)(=O)c2ccc3nc(C)sc3c2)cc1	29%	19%
51	CN(C)Cc1ccccc1-c1ccc2ncnc(NC3CC3)c2c1	0%	x
52	CC(C)(C)c1ccc(C(=O)NCCc2csc(-c3ccc(Cl)cc3)n2)cc1	x	-6%
53	O=C(NCCCl)Nc1ccccc1OCCOc1ccccc1NC(=O)NCCCl	4%	-9%
54	CN(C)c1oc(-c2ccc(COc3ccccc3)o2)nc1C#N	x	2%
55	CC1(C)CC2(C)Nc3ccccc3N2C(=S)N1 (stereo not given)	2%	2%
56	CCC(Oc1ccccc1)C(=O)Nc1ccccc1OCc1cc(=O)n2ccccc2n1 (stereo not given)	x	-1%
57	Cc1cc(=O)oc2cc(OCC(O)CN3CCN(c4ccc(F)cc4)CC3)ccc12 (stereo not given)	9%	-7%
58	CC(=O)Cn1cnc2sc(-c3ccccc3)cc2c1=O	-15%	6%
59	CCOC(=O)c1cnn2c(C(F)(F)F)cc(-c3ccco3)nc12	21%	-8%
60	CCNS(=O)(=O)c1ccc(CCC(=O)NCc2ccc(C)cc2)cc1	0%	4%
61	O=C1C(Cl)=C(NCC2CCCO2)C(=O)N1C1CCCCC1 (stereo not given)	10%	-17%
62	COc1ccc(Cn2c(C(=O)O)c(CNCCc3ccco3)c3ccc(OC)cc32)cc1	x	16%
63	Cc1cccc(C)c1OCCOC(=O)c1n[nH]c2ccccc12	-4%	u
64	O=C(O)C1CCCCC1C(=O)Nc1cc(C(F)(F)F)ccc1Cl (stereo not given)	4%	-3%
65	CCn1cc(CN2CCCC(C(=O)Nc3ccc(-c4nc5ccccc5[nH]4)cc3)C2)c(C)n1 (stereo not given)	-15%	0%
66	CC(C)(C)c1ccc(C(=O)CC(=O)c2cc(Cl)ccc2O)cc1	9%	-15%
67	CCCCS(=O)(=O)/C=C\C=C/S(=O)(=O)CCCC	3%	-5%
68	O=C(COc1c(Cl)cccc1Cl)NN1C(=O)CSC1=S	-3%	10%
69	Cn1c(=O)c2c(ncn2CC(=O)OCC(=O)Nc2cccc(Cl)c2)n(C)c1=O	-1%	4%
70	CC(C)C(C(=O)Nc1nccs1)c1ccccc1 (stereo not given)	-8%	3%
71	CC(Oc1ccccc1F)C(=O)NCCN1CCCCC1 (stereo not given)	2%	7%
72	O=C1C=CCCC1	3%	17%
73	Cc1cc(=O)oc2cc(OCCCC[n+]3ccccc3)ccc12	3%	0%
74	CCn1c(SCC(=O)Nc2nc(C)c(C)s2)nc2cccnc21	23%	3%
75	CCc1ccc(NCc2cc3cc4c(cc3n(CC(=O)Nc3ccccc3C)c2=O)OCCO4)cc1	x	-13%
76	O=C(c1cccc(COc2cccc3ccccc23)c1)N1CCCC1	12%	-2%
77	O=C(NCc1ccccc1)c1cc2sccc2n1Cc1ccc(F)cc1	x	16%
78	COc1cc(NC(=O)CCc2c(C)[nH]c(=O)c(C#N)c2C)cc(OC)c1	2%	-2%
79	C/C=C/c1ccc(OCCN2C(=O)NC(C)(C)C2=O)c(OC)c1	11%	-9%
80	CC(=O)NCCNc1nc(-c2ccccc2C(F)(F)F)nc2ccccc12	2%	x

# Next section:
cpd	compound	N370S GC mod	FEN1 inhibitor
81	Cc1ccc(S(=O)(=O)N2CCCC2C(=O)n2nc(C)cc2C)cc1 (stereo not given)	21%	-3%
82	CCCc1cc(C(N)=O)c(NC(=O)c2ccco2)s1	-24%	-1%
83	CC(=O)NCCC(=O)Nc1sc2c(c1-c1nc3ccccc3[nH]1)CCCC2	2%	-35%
84	O=C(NC1CCCCC1)C(c1ccc2ncccc2c1)N(Cc1ccc(F)cc1)C(=O)c1ccc2c(c1)OCCO2 (stereo not given)	-27%	-19%
85	CCOc1ccc(S(=O)(=O)NCCC(=O)N(C)CC(=O)Nc2ccc(OC)cc2)cc1	-11%	-1%
86	Cc1cccnc1NC(=S)Nc1ccc(Br)cc1Cl	24%	-16%
87	COC(=O)Cc1n[nH]c(=S)[nH]c1=O	-7%	-15%
88	O=C(NCCCN1CCCC1)c1ccc(CS(=O)(=O)c2ccc(Cl)cc2)o1	4%	-24%
89	O=S(=O)(c1cccc(NC(=S)N2CCN(c3ccccc3F)CC2)c1)C(F)F	-1%	-15%
90	O=C(COc1ccccc1)NC1CCCCCCC1	u	18%
91	Cc1ccc(OCc2ccc(-c3nc(C#N)c(NCc4cccnc4)o3)o2)cc1	x	-16%
92	COC(=O)c1cc(C(=O)NCC2CCCCC2)cc([N+](=O)[O-])c1	-10%	7%
93	CN(CC(=O)Nc1ccccc1Cl)C(=O)COC(=O)c1cnccn1	2%	25%
94	COc1ccc([N+](=O)[O-])cc1NC(=O)C(C)OC(=O)Cc1ccc(OC)c(OC)c1 (stereo not given)	x	-6%
95	CCS(=O)(=O)n1c(Cc2cccs2)nc2ccccc21	-6%	10%
96	COc1cc(NC(=S)N2CCN(S(=O)(=O)c3ccc(C)cc3)CC2)cc(OC)c1	-2%	-2%
97	COc1ccc(NC(=O)Nc2ccc3oc(C)nc3c2)cc1	-7%	3%
98	O=C1CN(CC(=O)Nc2cccc(Cl)c2Cl)c2ccccc2N1	3%	0%
99	Cc1ccc(S(=O)(=O)N2CCN(c3ccc(N4CCOCC4)nn3)CC2)cc1[N+](=O)[O-]	-1%	4%
100	Cc1cc(=O)[nH]c(SCC2(O)C3CC4CC(C3)CC2C4)n1 (stereo not given)	9%	0%
101	Cn1c(=O)c(C(=O)CN2CCN(Cc3ccc4c(c3)OCO4)CC2)c(N)n(Cc2ccccc2)c1=O	-1%	-6%
102	O=C(NNS(=O)(=O)c1ccc(Br)cc1)c1ccncc1	16%	7%
103	COc1ccc(CNC(=O)CCc2nc(-c3ccc(OC)cc3)no2)cc1	x	-1%
104	Cc1noc(C)c1COC(=O)C1CCN(C(=O)c2ccc(Cl)cc2)CC1	-1%	1%
105	O=C(NCCCc1ccccc1)c1ccc2c(c1)sc1nc(-c3ccc(F)cc3)cn12	x	0%
106	Cc1cc([N+](=O)[O-])nn1CC(=O)Nc1cccc2nonc12	-1%	-9%
107	CCOC(=O)Nc1cc(C)c(Cl)cc1OC	-2%	6%
108	CCC(=O)Nc1cc(C(=O)OCC(=O)c2ccccc2Cl)ccc1C	3%	-5%
109	Cc1ccc2nsnc2c1S(=O)(=O)N(Cc1ccco1)Cc1cc2cccc(C)c2[nH]c1=O	11%	10%
110	COc1cccc(CN2CCN(Cc3nc(C(C)C)cs3)CC2CCO)c1 (stereo not given)	-2%	11%
111	O=S(=O)(NC1CCCCC1N1CCN(c2ccccc2F)CC1)c1ccccc1 (stereo not given)	-1%	-23%
112	CCOc1ccc(C(=S)N2CCCC2)cc1OCC	2%	20%
113	CNC(=O)C1(C)C=CC2(CCCCC2)N1C(=O)OC (stereo not given)	-8%	1%
114	Cn1ccnc1SCC(=O)n1c2c(c3ccccc31)CCCC2	3%	-15%
115	CC(=O)c1ccc(OCC(O)CN2CCN(Cc3ccc4c(c3)OCO4)CC2)cc1 (stereo not given)	-4%&6%	15%&-13%

# An excerpt; most or all hits stand in other tables.
